# High-throughput results as filed in PubChem BioAssay.
# Menin-MLL FL inh: menin-MLL binding inhibition, fluorescein peptide. 290,000 tested, under 10 active. FP activity change, % at 61.4 µM. Fluorescence polarization, fluorescein-MLL peptide displacement from menin; inconclusive = falling polarisation curve, or a change in total fluorescence; inactive = total fluorescence flat and polarisation flat or rising; no compound was filed as active; the % refers to the polarisation; negative = inhibition;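 also: % of control where 0% means no effect; inhibitors lower the polarisation; unlabelled MLL peptide was the positive control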
# TRPML1 ag: human mucolipin-1 channel agonism; activation, % (no concentration beside the values); Q9GZU1; TRPML1-expressing cells, Ca2+ dye fluorescence, FDSS; host cell line not named in the record; reference of the full effect not given here; 0.12% of 410,000 active; in the data active = activation above about 50%; inconclusive = about 30% to 50%; inactive = below about 30%; also: 0% is about no effect; the text of the record puts the active cut at 80%
# Target sequence (Q9GZU1 whole entry, looked up): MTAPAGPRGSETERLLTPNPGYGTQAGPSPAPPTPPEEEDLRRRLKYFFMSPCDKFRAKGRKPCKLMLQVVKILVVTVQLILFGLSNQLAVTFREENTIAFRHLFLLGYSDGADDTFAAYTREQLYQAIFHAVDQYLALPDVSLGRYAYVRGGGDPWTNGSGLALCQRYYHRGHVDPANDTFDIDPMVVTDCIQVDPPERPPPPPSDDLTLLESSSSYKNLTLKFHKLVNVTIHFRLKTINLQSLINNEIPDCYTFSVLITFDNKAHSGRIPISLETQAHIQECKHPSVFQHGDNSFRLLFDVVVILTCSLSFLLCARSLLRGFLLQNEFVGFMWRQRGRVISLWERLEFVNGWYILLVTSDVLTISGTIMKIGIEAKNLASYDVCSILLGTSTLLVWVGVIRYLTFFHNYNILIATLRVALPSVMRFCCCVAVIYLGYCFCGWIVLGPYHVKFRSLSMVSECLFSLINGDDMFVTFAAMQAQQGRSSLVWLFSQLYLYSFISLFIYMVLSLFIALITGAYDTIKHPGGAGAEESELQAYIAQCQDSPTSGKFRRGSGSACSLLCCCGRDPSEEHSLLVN
#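 Tetracycline-induced TRPML1-DL cells are seeded and incubated overnight before loading with a no-wash Ca2+ dye and quencher. Agonist activity is taken from the 110 s fluorescence read following compound pin-transfer on an FDSS, before EC80 54-4 challenge.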
# TRPML1 blocker: human mucolipin-1 channel inhibition; activity change, negative = inhibition, % (no concentration beside the values); 0.02% of 390,000 active; TRPML1-inducible cells, Ca2+ dye fluorescence, FDSS; active compounds read low; inhibition of EC80 agonist-evoked calcium signal; in the data active means activity change below about -50%; inconclusive means about -30% to -50%; inactive means above about -30%;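 also: stimulus is agonist 54-4 at its EC80 concentration; % is scaled to controls: 0 for no effect and ±100 for the full control effect; compound concentration not given in the record; the text of the record puts the active cut at -80%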
#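 TRPML1-DL cells, Tet-induced overnight (~16 h, 37 °C) at 1,500 cells/well, were loaded with Ca8 no-wash dye plus quencher for 45-90 min at room temperature. Compounds were pinned during FDSS kinetic reading; agonist 54-4 at EC80 (4 uM final) then added.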
# gsp antag: antagonizes gsp, the McCune-Albright syndrome mutation; gsp-mutant cells, cAMP HTRF, 30 min; control for the full effect not named in the record; Potency, µM (doses to about 76.9 µM), without a hit: top-dose activity change, negative = inhibition, most hits filed as inhibitors; 0.4% of 340,000 active; active = falling curve of any shape with a large fitted effect; inconclusive = falling curve, mostly with a smaller effect; inactive = flat or rising curve; cell line not stated here;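 also: intracellular cAMP measured with PDE inhibitor Ro 20-1724 present during compound exposure; potency is read from the fitted curve at half-maximal effect; % is scaled to controls: 0 for no effect and ±100 for the full control effect; nearly all actives have a fitted effect of over 65% in size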
#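 HTRF cAMP measurement after 30 min RT detection following 30 min, 37C compound treatment alongside […] (added as 300 uM solution) in G418-selected cells seeded at 2000/well and grown 16–24 h.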
# ClpP mod: qHTS Assay for Activators of ClpP. ATP-dependent Clp protease proteolytic subunit (Bacillus subtilis (strain 168)), P80244. purified B. subtilis ClpP, FRET peptide cleavage, 20 min. Potency, µM (highest dose often 57.5 µM), without a hit: top-dose activity change, negative = active. 1.9% of 340,000 active. AID 651965, 2013; active = well fitted falling curve with a large enough effect; inconclusive = small, poorly fitted or top-dose-only effect; inactive = no such curve, though single readings can be large or run the other way; also: potency is read from the fitted curve at half-maximal effect; the source files actives as falling curves though it sought activators and does not explain the sign; nearly all actives have a fitted effect of over 65% in size; many hits overshoot -100%
# Target sequence (P80244 whole entry, looked up): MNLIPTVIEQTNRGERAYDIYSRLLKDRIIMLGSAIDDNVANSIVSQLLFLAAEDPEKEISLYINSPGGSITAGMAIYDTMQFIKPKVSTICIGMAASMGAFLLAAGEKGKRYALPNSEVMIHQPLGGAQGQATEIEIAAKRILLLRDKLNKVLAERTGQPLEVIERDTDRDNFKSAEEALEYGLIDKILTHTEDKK
#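 Buffer: 100 mM Tris/HCl pH8, 100 mM KCl, 0.05% low protease BSA, 2.5% glycerol, 0.01% Tween-20. ClpP 10 microg/mL final; 20 min RT; delta FRET normalized to ADEP and DMSO controls.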
# gsp ag: activates gsp, the McCune-Albright syndrome mutation; gsp mutant cells, cAMP HTRF, 30 min; control for the full effect not named in the record; Potency, µM (highest dose often 76.9 µM), inactives show top-dose activation (cAMP increase), most hits filed as activators; 0.13% of 340,000 active; AID 624287; active = well fitted activation curve with a large enough effect; inconclusive = small, poorly fitted or top-dose-only effect, or another doubt; inactive = no such curve, though single readings can be large or run the other way; cell line not stated here;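 also: phosphodiesterase inhibitor Ro 20-1724 added with compounds to block cAMP breakdown; potency is read from the fitted curve at half-maximal effect; nearly all actives have a fitted effect of over 60% in size; about a fifth of the inactives were tested at one dose only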
#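 Cells stably selected in G418 were plated at 2000/well, grown 16-24 hr, then given compounds in DMSO with the PDE inhibitor […] (300 uM solution added) for 30 min at 37C; cAMP was read by HTRF.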
# * hit, by the source's call; ? = inconclusive; / = not tested or not shown; & = joins results of further samples; [ ] = dose if it differs, or a comment.
1. O=S(=O)(Nc1nc2ccccc2nc1N1CCN(c2ccccc2)CC1)c1ccc(F)cc1
2. C=CCN1C(=O)c2ccccc2C1(O)Cc1ccccc1 (stereo unspecified)
3. O=C(COc1ccccc1)OCC(=O)c1ccc(S(=O)(=O)N2CCCCC2)cc1
4. CCOP(=O)(OCC)/C(=N/OC(=O)c1ccc(Cl)cc1Cl)C(N)=O
5. Nc1c(C(=O)N2CCOCC2)oc2ccccc12
6. COc1ccc(NC(=O)Cn2nnc(C(=O)NCc3cccs3)c2N)c(OC)c1
7. CC(O)CN(Cc1ccc(Cl)cc1)CC(C)O (stereo unspecified)
8. Cc1cccc(NC(=O)CN2C(=O)N/C(=C/c3cc(C)n(-c4cccnc4)c3C)C2=O)c1

compound no.	1	2	3	4	5	6	7	8
Menin-MLL FL inh	-6.7	0.6	/	3.4	/	-4.9	-0.4	2.6
TRPML1 ag	1.0	0.0	0.9	-0.6	0.2	-0.2	-0.3	-0.6
TRPML1 blocker	38	20	-1	-13	-7	22	-7	18
gsp antag	-23%	9%	-7%	7%	5%	9%	2%	/
ClpP mod	-11%	/	-3.8%	/	4.0%	-4.6%	0.9%	/
gsp ag	0%	10%	25%	2%	-3%	?	18%	-17%[15.4 µM]

9. CSCCC(NC(=O)c1cccc(S(=O)(=O)N2CCOCC2)c1)c1nc2ccccc2[nH]1 (stereo unspecified)
10. CCn1nc(C(=O)N2CCc3ccccc32)c2ccccc2c1=O
11. CCCn1c(-c2ccc[nH]c2=O)nc2cc(C)c(C)cc21
12. COc1ccc(C(CNC(=O)c2cccc(S(=O)(=O)Nc3ccc(F)cc3)c2)N2CCOCC2)cc1 (stereo unspecified)
13. Cc1cccc(NC(=O)CCN2CCN(C)CC2)c1
14. COC(=O)c1cc(NC(=O)CC2C(=O)NCCN2C(=O)c2ccc(F)cc2)cc(C(=O)OC)c1 (stereo unspecified)
15. Cc1c(NC(=O)c2ccccc2)cc(C(C)C)c(O)c1S(=O)(=O)c1ccc(Cl)cc1
16. Cc1oc(S(=O)(=O)N2CCOCC2)cc1C(=O)Nc1ccc(F)cc1

compound no.	9	10	11	12	13	14	15	16
Menin-MLL FL inh	/	/	-0.4	/	3.1	0.1	/	1.0
TRPML1 ag	1.5	0.8	-0.2	0.7	0.6	-0.2	0.9	-0.2
TRPML1 blocker	17	5	-9	-7	-3	-14	15	7
gsp antag	-8%	-9%	-3%	-11%	12%	4%	/	-3%
ClpP mod	-2.1%	-1.3%	/	0.3%	-4.6%	-1.2%	-4.3%	/
gsp ag	0%	-54%[inhibitor]	5%	-9%	-8%[15.4 µM]	2%	/	-4%[15.4 µM]

17. CCOc1ccc(CCNC(=O)Cn2nc(C)n3cccc3c2=O)cc1OCC
18. Cc1cc(C)n(C(=O)C2CCCN2S(=O)(=O)c2ccc(Cl)cc2)n1 (stereo unspecified)
19. Cc1ccc(CNC(=O)c2ccc(N3CCC4(CC3)CC(c3cccc(Br)c3)=NO4)c(NC(=O)c3ccccc3)c2)cc1
20. COc1cc2oc(=O)cc(CN3CCN(c4ccccc4F)CC3)c2cc1Cl
21. CC(C)CC(=O)C(=O)O
22. CCOC(=O)N1CCN(C(=O)CCCn2c(=S)[nH]c3ccccc3c2=O)CC1
23. O=C(CN1C(=O)C2CCCCC2C1=O)Nc1cc(C(F)(F)F)ccc1N1CCCC1 (stereo unspecified)
24. Cc1ccccc1-c1c(C)oc2cc(O)ccc2c1=O

compound no.	17	18	19	20	21	22	23	24
Menin-MLL FL inh	/	-5.5	/	/	/	2.4	/	-0.1
TRPML1 ag	-0.8	0.6	-0.3	0.7	0.3&0.0	0.5	0.4	0.9
TRPML1 blocker	0	0	-2	-2	2&-10	-3	5	39
gsp antag	11%	11%	2%	/	-5%&-9%	?	-26%	-12%
ClpP mod	-0.5%	1.6%	-19%	-15%	2.6%&-2.7%	3.1%	0.5%	45%
gsp ag	-25%	22%[15.4 µM]	-11%	/	/	12%	34%	-30%

25. CSc1cccc(N2CC(C(=O)NCCC3=CCCCC3)CC2=O)c1 (stereo unspecified)
26. O=C(COC(=O)c1cccc(S(=O)(=O)N2CCOCC2)c1)NCCc1ccccc1
27. COc1ccc(S(=O)(=O)N2CCN(CC(=O)Nc3cc(Cl)ccc3Cl)CC2)cc1
28. C[C@H](CO)N1C[C@H](C)[C@H](CN(C)C(=O)Nc2ccnc(N3CCOCC3)c2)OCc2cnnn2CCCC1=O
29. COCCNC(=O)c1ccc2c(c1)N(Cc1ccc(C(F)(F)F)cc1)C(=O)c1ccccc1S2
30. CCOC(=O)Cn1nc(C)c(NC(=O)CCc2ccc(OC)cc2)c1C
31. C[n+]1ccn(CC(=O)c2ccc(Cl)cc2)c1
32. Brc1ccccc1OCCN1CCOCC1

compound no.	25	26	27	28	29	30	31	32
Menin-MLL FL inh	/	/	/	/	/	-2.8	4.4	-0.9
TRPML1 ag	0.0	-0.6	1.6	-0.5	3.2	2.2	1.1	0.3
TRPML1 blocker	-7	5	-10	3	29	-12	5	50
gsp antag	3%	-13%	19%	/	/	7%	8%	-9%
ClpP mod	0.4%	-0.8%	1.4%	3.6%	3.4%	/	-2.4%	0.1%
gsp ag	1%[15.4 µM]	-4%	8%	1%	/	14%[15.4 µM]	-21%	1%[15.4 µM]

33. CCOC(=O)C1(Cc2cccc(OC)c2)CCN(Cc2cccc(OC)c2O)CC1
34. COC(=O)NC(=S)Nc1ccc(Oc2ccc(Cl)cc2Cl)c(Cl)c1
35. COC(=O)c1cccc(NC(=O)CSc2nnc(C3CC3)n2C)c1
36. COc1ccc(NC(=O)Nc2ccccc2OCc2cc(=O)n3ccccc3n2)c(OC)c1
37. COC(=O)C(C)Sc1nc2c(cnn2-c2ccccc2)c(=O)[nH]1 (stereo unspecified)
38. Cn1nnc(NC(=O)c2ccc([N+](=O)[O-])cc2Cl)n1
39. CCOc1ccc(S(=O)(=O)N(C)CC(=O)NC2CCCC2)cc1
40. O=C(CNS(=O)(=O)c1ccccc1)NCC(=O)OCc1ccc(C(=O)c2ccccc2)cc1

compound no.	33	34	35	36	37	38	39	40
Menin-MLL FL inh	-0.2	0.8	-0.6	/	?	-1.7	-0.5	1.8
TRPML1 ag	-0.1	0.2	-1.0	2.1	-0.4	0.1	1.6	2.6
TRPML1 blocker	3	62	0	26	-8	-16	-16	12
gsp antag	/	-1%	7%	/	-6%	-3%	5%	-15%
ClpP mod	/	-1.8%	?	-5.9%	-3.1%	/	1.6%	3.3%
gsp ag	-8%[15.4 µM]	-44%[inhibitor]	-3%[15.4 µM]	/	-98%	19%[15.4 µM]	1%	-36%[inhibitor]

41. COc1ccc(-n2nnnc2SC(C)C(=O)NCC(=O)Nc2ccc(F)c(F)c2F)cc1 (stereo unspecified)
42. CCc1nn2c(=O)cc(COC(=O)c3ccc(NC(=O)C4CCCCC4)cc3)nc2s1
43. COc1cccc(CNc2nccn(-c3cc(C)cc(C)c3)c2=O)c1
44. CCn1cc(C(=O)N[C@H](C(=O)NC(C)(C)CO)C(C)C)c(=O)c2cc3c(cc21)OCO3
45. CC(=O)C1=C(NC(=O)c2ccc(F)cc2)CC2C1C2(C)C (stereo unspecified)
46. COc1ccc(O)c(C(=O)c2cc(C#N)c(=O)n(CCN3CCOCC3)c2)c1
47. COc1ccc(C(=O)Nc2ccc(N3CCC(C)CC3)cc2)cc1Br
48. COc1ccc(CC(=O)Nc2nc(C(C)(C)C)cs2)cc1

compound no.	41	42	43	44	45	46	47	48
Menin-MLL FL inh	4.1	/	/	0.8	6.4	0.0	-5.5	0.9
TRPML1 ag	3.0	1.2	1.6	/	1.2	-0.1	-0.6	0.2
TRPML1 blocker	-8	18	-1	/	-1	9	-22	3
gsp antag	-7%	/	/	10%	-14%	-2%	9%	/
ClpP mod	/	-5.6%	-18%	-18%	-2.7%	5.0%	/	/
gsp ag	-4%[15.4 µM]	/	/	27%	11%	2%	40%	19%[15.4 µM]

49. C1CCc2c(nc3nnnn3c2N2CCOCC2)C1
50. NNC(=O)c1cccc(S(=O)(=O)Nc2cccc(C(F)(F)F)c2)c1
51. O=C(COc1ncnc2sccc12)Nc1cccc(S(=O)(=O)N2CCOCC2)c1
52. CCOC(=O)Cc1c(C)nc2c(-c3ccc(Cl)cc3)c(C)nn2c1C
53. CNC(=S)NNC(=O)c1ccccc1F
54. Cc1ccccc1NC(=O)C(=O)NCC1(c2ccccc2)CCCC1
55. COc1ccc(CCNC(=O)CN2C(=O)c3ccccc3C2=O)cc1
56. CCN1CCN(c2ncc(C(=O)Nc3cc(Cl)c(OC)cc3OC)c3ccccc23)CC1

compound no.	49	50	51	52	53	54	55	56
Menin-MLL FL inh	-0.7	-0.3	/	3.4	-1.2	/	0.0	0.4
TRPML1 ag	1.0	-0.4	1.7	0.3	5.5	8.8	0.7	-0.2
TRPML1 blocker	17	60	2	45	-7	0	20	-4
gsp antag	11%	-3%	19%	4%	-14%	/	-4%	-9%
ClpP mod	-1.6%	1.5%	0.1%	/	/	-1.4%	-0.8%	0.4%
gsp ag	-20%	6%	?	-18%[15.4 µM]	0%[15.4 µM]	/	-50%[inhibitor]	15%

# Laid out differently: results already given
53: CNC(=S)NNC(=O)c1ccccc1F
  Menin-MLL FL inh = -1.2
  TRPML1 ag = 5.5
  TRPML1 blocker = -7
  gsp antag = -14%
  ClpP mod = /
  gsp ag = 0%[15.4 µM]
55: COc1ccc(CCNC(=O)CN2C(=O)c3ccccc3C2=O)cc1
  Menin-MLL FL inh = 0.0
  TRPML1 ag = 0.7
  TRPML1 blocker = 20
  gsp antag = -4%
  ClpP mod = -0.8%
  gsp ag = -50%[inhibitor]
52: CCOC(=O)Cc1c(C)nc2c(-c3ccc(Cl)cc3)c(C)nn2c1C
  Menin-MLL FL inh = 3.4
  TRPML1 ag = 0.3
  TRPML1 blocker = 45
  gsp antag = 4%
  ClpP mod = /
  gsp ag = -18%[15.4 µM]
56: CCN1CCN(c2ncc(C(=O)Nc3cc(Cl)c(OC)cc3OC)c3ccccc23)CC1
  Menin-MLL FL inh = 0.4
  TRPML1 ag = -0.2
  TRPML1 blocker = -4
  gsp antag = -9%
  ClpP mod = 0.4%
  gsp ag = 15%
